Vaccinia Venus: qHTS for Stage-Specific Inhibitors of Vaccinia Orthopoxvirus: Venus Reporter Primary qHTS; Vaccinia virus Venus reporter expression, fluorescence; Potency, µM (doses to about 36.5 µM), without a hit: top-dose activity change, negative = inhibition, actives largely listed as inhibitors; 0.46% of 330,000 active; active means well fitted inhibition curve with a large enough effect; inconclusive means small, poorly fitted or top-dose-only effect; inactive means no such curve, though single readings can be large or run the other way; tested in A549 cells; also: nearly all actives have a fitted effect of over 30% in size; inactives centre near -10
VACV mCherry inh: qHTS for Stage-Specific Inhibitors of Vaccinia Orthopoxvirus: mCherry Reporter Primary qHTS. Vaccinia virus mCherry reporter infection, fluorescence; about a quarter of the inactives have no number. Potency, µM (highest dose often 36.5 µM), inactives show at the top dose activity change, negative = inhibition, actives largely listed as inhibitors. 0.63% of 310,000 active. AID 720579, 2013; active = well fitted inhibition curve with a large enough effect; inconclusive = small, poorly fitted or top-dose-only effect; inactive = no such curve, though single readings can be large or run the other way; tested in A549 cells; also: nearly all actives have a fitted effect of over 35% in size; inactives centre near -10
* marks the source's active call; other numbers are inactive results; & = joins results of further samples; [ ] = dose if it differs, or a comment. % is scaled to controls: 0 for no effect and ±100 for the full control effect; potency is read from the fitted curve at half-maximal effect.

Screening Cc1ccc(S(=O)(=O)Nc2ccccc2O)cc1 returned Vaccinia Venus -19% and VACV mCherry inh -5%.
For CCc1nc2ccc(C(=O)NCCc3ccccn3)cn2c1N(C)Cc1ccc(N(C)C)cc1 the results were Vaccinia Venus -4% and VACV mCherry inh 42%[activator].
`COc1ccc(OC)c(NC(=O)C2CCCN2S(=O)(=O)c2ccc3c(c2)CC(C)N3C(C)=O)c1` (stereo not drawn) gave Vaccinia Venus -4% and VACV mCherry inh -7%.
Screening Cc1ccccc1-c1noc(-c2ccc(N3CCCC3)c([N+](=O)[O-])c2)n1 returned Vaccinia Venus 2% and VACV mCherry inh -5%.
`COc1ccc(NC(=O)/C=C/c2ccccc2[N+](=O)[O-])c(OC)c1` gave Vaccinia Venus -5% and VACV mCherry inh -16%.
`Cc1cc(C(C)(C)C)ccc1OCCOCCN1CCCC1` gave Vaccinia Venus -22% and VACV mCherry inh -3%.
Screening COc1cccc(/C=C2\N=C(c3cncc(Br)c3)OC2=O)c1 returned Vaccinia Venus -13% and VACV mCherry inh inactive.
For Cc1cnc(C(=O)NCC(=O)Nc2ccccc2Br)cn1 the results were Vaccinia Venus -1% and VACV mCherry inh -10%.
For O=C(COC(=O)C1CCC(=O)N1)Nc1ccc(Oc2ccccc2)cc1 (stereo not drawn) the results were Vaccinia Venus 0% and VACV mCherry inh -9%.
Screening CC(C)=C(C#N)c1nc2ccccc2s1 returned Vaccinia Venus 3% and VACV mCherry inh -6%.
For Cc1nc2nc(-c3ccco3)nn2c(C)c1Cl the results were Vaccinia Venus 2%.
For C=CCNc1nc(NCc2ccccc2)c(C#N)c2c1CN(C)CC2 the results were Vaccinia Venus -17% and VACV mCherry inh inconclusive.
Cc1nc2nc(C)c(NS(=O)(=O)c3ccc(Cl)s3)c(=O)n2[nH]1 was read as Vaccinia Venus -6% and VACV mCherry inh 8%.
For CC(=O)c1cccc(S(=O)(=O)NC(C)C2CC3CCC2C3)c1 (stereo not drawn) the results were Vaccinia Venus -9% and VACV mCherry inh -13%.
Cc1c(C(=O)Nc2cccc(C(F)(F)F)c2)sc2nc3n(c(=O)c12)CCCC3 was read as Vaccinia Venus -21% and VACV mCherry inh -24%.
For CCOc1ccc(C(=O)C(c2ccccc2)N2CCOCC2)cc1 (stereo not drawn) the results were Vaccinia Venus -15%.
Nc1ccc(Br)cc1C(NCC(=O)O)c1ccccc1 (stereo not drawn) was read as Vaccinia Venus -11% and VACV mCherry inh -15%.
O=C(NC1CCS(=O)(=O)C1)c1cccc(S(=O)(=O)N2CCOCC2)c1 (stereo not drawn) was read as Vaccinia Venus -2% and VACV mCherry inh inactive.
CC(=O)Nc1ccc(C)cc1 was read as Vaccinia Venus -10% and VACV mCherry inh -9%.
`CN(C)c1ccc(/C=C/c2ccnc3ccccc23)c(F)c1` gave Vaccinia Venus 15% and VACV mCherry inh inactive.
CC(O)(c1ccccc1)c1nc(-c2ccc(S(C)(=O)=O)cc2)cs1 (stereo not drawn) was read as Vaccinia Venus -10% and VACV mCherry inh inactive.
CC(C)(C)C(=O)O/N=C(\N)c1ccc(-c2csnn2)cc1 was read as Vaccinia Venus 1%[7.34 µM] and VACV mCherry inh inactive[7.34 µM].
For CC(SCC(=O)Nc1ccccc1)c1nc2ccccc2c(=O)[nH]1 (stereo not drawn) the results were Vaccinia Venus -10% and VACV mCherry inh inactive.
Screening COc1ccccc1C(=O)Nc1ccccc1SCc1cc(=O)c2ccccc2[nH]1 returned Vaccinia Venus -20% and VACV mCherry inh inconclusive.
`CC(C)c1ccccc1NC(=O)COC(=O)c1ccc(Cl)c(S(=O)(=O)N2CCCCCC2)c1` gave Vaccinia Venus -5% and VACV mCherry inh inactive.
COc1ccc2c(c1)c(C(=O)N/N=C/c1cccc(O)c1)c(C)n2C was read as Vaccinia Venus -10% and VACV mCherry inh -10%.
Screening CN(C)CCCNC(=O)C[C@H]1C[C@H](C(=O)N2CCCCC2)[C@@]2(CCc3ccccc3)c3[nH]c4ccc(Cl)cc4c3CCN2C1=O returned Vaccinia Venus 14µM* and VACV mCherry inh 13µM*.
Screening CCc1ccccc1NC(=O)CN(C)C(=O)CSc1nc2cc(Cl)ccc2s1 returned Vaccinia Venus -21% and VACV mCherry inh -11%.
For O=C(NCC1CCN(Cc2ccccc2Cl)CC1)Nc1ccccc1F the results were Vaccinia Venus -9% and VACV mCherry inh inactive.
COC(=O)C(CC(C)C)NC(=O)CNC(=O)c1ccccc1C (stereo not drawn) was read as Vaccinia Venus -5% and VACV mCherry inh -12%.

Of the compounds above, these contain a thiophene ring, fused or not.
Cc1nc2nc(C)c(NS(=O)(=O)c3ccc(Cl)s3)c(=O)n2[nH]1 was read as Vaccinia Venus -6% and VACV mCherry inh 8%.
Cc1c(C(=O)Nc2cccc(C(F)(F)F)c2)sc2nc3n(c(=O)c12)CCCC3 was read as Vaccinia Venus -21% and VACV mCherry inh -24%.

(list continues)
For CCN1C(=O)[C@H]2[C@@H](c3ccc(-c4ccc(Cl)c(Cl)c4)c(OC)c3)N[C@@](Cc3ccccc3)(C(=O)OC)[C@H]2C1=O the results were Vaccinia Venus inconclusive and VACV mCherry inh -6%.
Screening NC(=O)c1ccc(NC(=O)COC(=O)C23CC4CC(CC(C4)C2)C3)cc1 returned Vaccinia Venus -8% and VACV mCherry inh inactive.
`CN(C)S(=O)(=O)c1ccc(S(=O)(=O)NC2CCOC(C)(C)C2)cc1` (stereo not drawn) gave Vaccinia Venus -7% and VACV mCherry inh -19%.
For COc1ccc2nc(SC)c(C#N)cc2c1 the results were Vaccinia Venus 2% and VACV mCherry inh -4%.
`CC1Nc2ncnc(N3CCN(c4ccccc4)CC3)c2N(Cc2ccc(Br)cc2)C1=O` (stereo not drawn) gave Vaccinia Venus inconclusive and VACV mCherry inh 7.1µM*.
Nc1ccc(Oc2ccc3nc(-c4ccccc4)c(-c4ccc([N+](=O)[O-])cc4)nc3c2)cc1 was read as Vaccinia Venus 11%.
`Cc1ccc(S(=O)(=O)N2[C@@H](Cc3ccccc3)CO[C@H]2CC(=O)c2cccc3ccccc23)cc1` gave Vaccinia Venus -18% and VACV mCherry inh -20%.
Screening CCOC(=O)N1CCc2c(sc3c2c(=O)n(-c2ccccc2)c(=O)n3CC(=O)Nc2ccc(OC)cc2OC)C1 returned Vaccinia Venus -11% and VACV mCherry inh -7%.
COC(=O)c1cccnc1N1CCN(c2ccccc2F)CC1 was read as Vaccinia Venus -9% and VACV mCherry inh -19%.
Screening O=P(c1ccccc1)(c1ccccc1)N(c1ccccc1)c1ccccc1 returned Vaccinia Venus -8% and VACV mCherry inh inactive.
For Cn1nc(C(=O)N2CCC(C(N)=O)CC2)c2c1-c1ccccc1SC2 the results were Vaccinia Venus -2% and VACV mCherry inh 1%.
Screening COCCNc1ncnc2c1ncn2[C@H]1CN(Cc2ccc(OC)cc2)C[C@@H](CO)O1 returned Vaccinia Venus 4% and VACV mCherry inh inactive.
For O=C(Cc1ccccc1)OCC(=O)c1ccccc1 the results were Vaccinia Venus -7% and VACV mCherry inh -14%.
Cc1cccc(C2c3c(n(C)c(=O)n(C)c3=O)N=C3c4ccccc4C(=O)C32)c1 (stereo not drawn) was read as Vaccinia Venus -5% and VACV mCherry inh -19%.
For COc1cccc(/C=N/Nc2cc(N3CCOCC3)ncn2)c1O the results were Vaccinia Venus -24% and VACV mCherry inh inconclusive.
CC(C)c1ccc(Nc2c(-c3ccc(N4CCOCC4)cc3)nc3ncccn23)cc1 was read as Vaccinia Venus -2% and VACV mCherry inh 1%.
`CC(C)CCNC(=O)c1cnc2sc(N3CCCCC3)nn2c1=O` gave Vaccinia Venus -7% and VACV mCherry inh -11%.
C/C=C(\C)C(=O)N1CCC(C(=O)c2ccccc2)CC1 was read as Vaccinia Venus -5% and VACV mCherry inh -13%.
COc1ccc(SC[C@H](C)CN2CC[C@H](C)CCC2=O)cc1 was read as Vaccinia Venus -5%&-2% and VACV mCherry inh -5%.
Screening CCOCCCNC(=S)NCCc1ccccc1 returned Vaccinia Venus 4% and VACV mCherry inh inactive.
CC(=O)c1nc(N2C(=O)CC(Cc3ccccc3)C2=O)sc1C (stereo not drawn) was read as Vaccinia Venus -6% and VACV mCherry inh -14%.
For CCC1Oc2ccccc2N(CC(=O)NCCN2CCc3ccccc3C2)C1=O (stereo not drawn) the results were Vaccinia Venus -7% and VACV mCherry inh -18%.
`CCOc1ccc(N(c2nc(-c3ccc(OC)c(OC)c3)no2)c2nc(-c3ccc(OC)c(OC)c3)no2)cc1` gave Vaccinia Venus -3% and VACV mCherry inh 8%.
`CC(C)C[C@H](NC(=O)N1CCn2c1nc1ccccc12)C(=O)N[C@H](Cc1ccccc1)C(=O)O` gave Vaccinia Venus -5% and VACV mCherry inh 3%.
`COc1cc(CN2CCC(n3nccc3NC(=O)CCCc3ccccc3)CC2)ccc1O` gave Vaccinia Venus -16% and VACV mCherry inh -23%.
`COc1cccc(NC(=O)CCc2nc(-c3cc(OC)c(OC)c(OC)c3)no2)c1` gave Vaccinia Venus -2% and VACV mCherry inh -12%.
c1ccc(-c2oc3ncnc(NCCN4CCOCC4)c3c2-c2ccccc2)cc1 was read as Vaccinia Venus -27% and VACV mCherry inh -14%.
For O=C(CN1C(=O)C2C3CCC(C3)C2C1=O)NCc1ccco1 (stereo not drawn) the results were Vaccinia Venus -5% and VACV mCherry inh inactive.
Screening Cc1cc(O)c(NC(=O)c2ccc(C)c([N+](=O)[O-])c2)cc1C returned Vaccinia Venus 0% and VACV mCherry inh 1%.
COc1ccccc1-n1nnnc1SCC(=O)NC1CCCC1 was read as Vaccinia Venus -12%.
Screening COc1cc(NC(=O)N2CCOCC2)cc(OC)c1 returned Vaccinia Venus -9%.
Screening N#Cc1cccc(NC(=O)CCC2CCCC2)c1 returned Vaccinia Venus -21% and VACV mCherry inh -7%.
For CC(Nc1cccc(C(=O)NC2CC2)c1)c1nnc(-c2ccccc2)o1 (stereo not drawn) the results were Vaccinia Venus 0% and VACV mCherry inh inactive.
For COc1ccc(NC(=O)C[C@@H]2C(=O)N(Cc3ccccc3)CC2(C)C)cc1 the results were Vaccinia Venus -16% and VACV mCherry inh inactive.
Screening Cc1ccccc1C(=O)O/N=C(\N)Cc1cccs1 returned Vaccinia Venus -20% and VACV mCherry inh inactive.
Screening CC(CCc1ccccc1)NC(=O)CSc1nc(N)cc(N)n1 (stereo not drawn) returned Vaccinia Venus -7% and VACV mCherry inh -15%.
Screening O=S(=O)(NCC(c1ccccc1)N1CCc2ccccc21)c1ccccc1 (stereo not drawn) returned Vaccinia Venus -12% and VACV mCherry inh -24%.
For O=[N+]([O-])c1cccc(-c2nnc(C3CC3)o2)c1 the results were Vaccinia Venus -5% and VACV mCherry inh inactive.
Screening CC(C)c1cc(Cn2c3ccccc3c(=O)n2C(C)Cn2cc(COc3ccccc3)nn2)on1 (stereo not drawn) returned Vaccinia Venus -6% and VACV mCherry inh inactive.
For CCOC(=O)c1ccc(NC(=O)Cc2noc3ccc(C)cc23)cc1 the results were Vaccinia Venus -4% and VACV mCherry inh -10%.
Screening COc1ccc(OC(=O)N2C/C(=C/c3ccccc3)C(=O)/C(=C\c3ccccc3)C2)cc1 returned Vaccinia Venus -5% and VACV mCherry inh -7%.
`COC(=O)CCC1(C(N)=O)CCC(=O)c2ccccc21` (stereo not drawn) gave Vaccinia Venus -2% and VACV mCherry inh inactive.
COC(=O)C1=CN(c2cccc(OCc3ccccc3)c2)C(N)=C(C#N)C1c1cccc(F)c1 (stereo not drawn) was read as Vaccinia Venus -8% and VACV mCherry inh inconclusive.
O=C(c1cc2ccccc2o1)c1cccs1 was read as Vaccinia Venus -11% and VACV mCherry inh -11%.
For COc1ccc(CC(=O)Nc2nncs2)cc1OC the results were Vaccinia Venus -15% and VACV mCherry inh -10%.
COc1ccc(NC(=O)Cn2nnc(C(=O)NCc3ccc4c(c3)OCO4)c2N)c(OC)c1 was read as Vaccinia Venus 8%[7.34 µM] and VACV mCherry inh -7%[7.34 µM].
For CC(Cc1ccccc1)NC(=O)NC(C)Cc1ccccc1 (stereo not drawn) the results were Vaccinia Venus inconclusive.
Screening CC1CC[C@@]2(OC1)OC1C(O)C3C4CC[C@H]5CC(O[C@@H]6O[C@@H](CO)[C@H](OC7OC(CO)C(O)C(OC8OCC(O)C(O)[C@H]8O)[C@@H]7O[C@@H]7OC(CO)[C@H](O)[C@@H](O[C@@H]8OC(CO)C(O)C(O)C8O)C7O)C(O)C6O)C(O)C[C@]5(C)C4CC[C@]3(C)C1C2C (stereo partly drawn) returned Vaccinia Venus 8.9µM* and VACV mCherry inh 7.9µM*.
CN(Cc1ccon1)C(=O)C1CCN(C2CCN(CCCc3ccccc3)CC2)CC1 was read as Vaccinia Venus -13% and VACV mCherry inh -15%.
Screening Cn1nnnc1SCC(=O)c1ccc2c(c1)OCCO2 returned Vaccinia Venus -10% and VACV mCherry inh -13%.

Fetched by structure from above:
`COC(=O)CCC1(C(N)=O)CCC(=O)c2ccccc21` (stereo not drawn) gave Vaccinia Venus -2% and VACV mCherry inh inactive.
COC(=O)C1=CN(c2cccc(OCc3ccccc3)c2)C(N)=C(C#N)C1c1cccc(F)c1 (stereo not drawn) was read as Vaccinia Venus -8% and VACV mCherry inh inconclusive.
COc1ccc(NC(=O)Cn2nnc(C(=O)NCc3ccc4c(c3)OCO4)c2N)c(OC)c1 was read as Vaccinia Venus 8%[7.34 µM] and VACV mCherry inh -7%[7.34 µM].
For CC(Cc1ccccc1)NC(=O)NC(C)Cc1ccccc1 (stereo not drawn) the results were Vaccinia Venus inconclusive.
CN(Cc1ccon1)C(=O)C1CCN(C2CCN(CCCc3ccccc3)CC2)CC1 was read as Vaccinia Venus -13% and VACV mCherry inh -15%.

Source: PubChem BioAssay

Rows are unselected. Share with any hit: about 0.82%.
